# Source: PubChem BioAssay
# Beta apoptosis: blocks beta cell apoptosis. INS-1E cytokine-induced death, ATP luminescence, 48 h; percent of positive-control rescue, neutral wells zero. actives 0.8% (n = 300,000). protection from apoptosis, % (no concentration beside the values). AID 435005;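 active = all replicates at 75% or more, or half of them and the mean; inconclusive = half reach 75% but not the mean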;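 note: 0% = cytokine-treated negative control wells and 100% = positive control rescue; higher means more ATP so stronger rescue from cytokine killing; wells of about 40 µL received 100 nL stock; the first replicate is given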
# LANA-H2B inh: blocks KSHV LANA binding to histone H2A/H2B; Q9QR71; inhibition, % (concentration not given with the values); AID 2629; cell-free LANA-H2A/H2B peptide, fluorescence polarization; actives 0.6% (n = 320,000); in the data active = inhibition mostly above about 10%, no sharp cut-off; inactive = mostly below about 6.7%;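 note: stock transfer was 7.5 nL into about 10 µL; 0% = median of vehicle wells and 100% = median of positive control wells; one replicate is shown; the record names a cut of 25% in any replicate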
# A1 inh: inhibitors of the anti-apoptotic protein A1, read as caspase activation. MEF A1-2A-BIM cells, Caspase-Glo 3/7 luminescence, 3 h; percent of clofoctol response, vehicle zero. caspase activation, % (concentration not given with the values). actives 0.066% (n = 330,000);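 active = over half of replicate activation scores above 10%, or exactly half above 10 with the replicate mean above 10; inconclusive = replicate mean below 10 yet half the replicates above 10; inactive = over half of replicates below 10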;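 note: wells of about 30 µL received 50 nL stock; many hits fall short of the cut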
# B2AR ag: activates human beta-2 adrenergic receptor causing internalization; P07550; Am2.2-beta2AR cells, FAP receptor internalization, flow cytometry; reference of the scale not given here; response, % (concentration not given with the values); actives 0.43% (n = 340,000); AID 504454;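 active = response above a set limit, near 3 SD of response in nonfluorescent compounds, cut at about 42% in these data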;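 note: stock transfer was 100 nL into about 11 µL; a reference agonist was the positive control; negative values mostly stem from fluorescent compounds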
# Target sequence (P07550 whole entry, looked up): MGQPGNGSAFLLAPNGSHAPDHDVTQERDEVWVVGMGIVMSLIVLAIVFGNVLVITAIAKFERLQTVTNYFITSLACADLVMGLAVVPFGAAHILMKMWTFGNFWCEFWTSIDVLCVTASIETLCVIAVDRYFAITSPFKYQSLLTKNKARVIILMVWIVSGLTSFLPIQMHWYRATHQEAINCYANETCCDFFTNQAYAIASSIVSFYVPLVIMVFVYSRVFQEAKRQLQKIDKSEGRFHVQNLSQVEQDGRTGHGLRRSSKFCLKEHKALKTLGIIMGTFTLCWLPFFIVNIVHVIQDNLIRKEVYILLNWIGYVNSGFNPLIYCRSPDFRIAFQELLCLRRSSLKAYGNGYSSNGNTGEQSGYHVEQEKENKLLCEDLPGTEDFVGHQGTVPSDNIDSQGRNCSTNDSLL
# UCH37 inh: human UCH37 deubiquitinating enzyme inhibition | Q9Y5K5 | purified proteasome/UCH37, Ub-AMC cleavage fluorescence | actives 0.33% (n = 330,000) | inhibition, % (no concentration beside the values);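 active = mean of two replicates above 20%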;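 note: 0% = compound-free wells with enzyme and 100% = wells lacking proteasome; stock transfer was 100 nL into about 20 µL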
# Target sequence (Q9Y5K5 whole entry, looked up): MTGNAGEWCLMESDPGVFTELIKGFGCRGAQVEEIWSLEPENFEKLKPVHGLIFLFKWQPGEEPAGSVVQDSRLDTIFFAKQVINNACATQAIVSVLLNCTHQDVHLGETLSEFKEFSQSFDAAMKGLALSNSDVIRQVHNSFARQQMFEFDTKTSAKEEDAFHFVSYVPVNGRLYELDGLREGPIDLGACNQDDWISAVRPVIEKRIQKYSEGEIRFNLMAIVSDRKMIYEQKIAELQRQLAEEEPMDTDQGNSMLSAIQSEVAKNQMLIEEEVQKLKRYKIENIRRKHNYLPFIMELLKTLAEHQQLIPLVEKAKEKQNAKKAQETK
#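 Schedule: 30 min plus 25 min, room temperature / Material: human UCH37 within purified proteasomes / Technique: AMC fluorescence intensity at 355/460 nm / Buffer or medium: pH 7.4 Tris-HCl (50 mM) with ovalbumin, ATP-MgCl2, DTT / Controls: wells without proteasome as full block, compound-free enzyme plus substrate as uninhibited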
# RanGTP-Imp inh: inhibitors of RanGTP-importin-beta interaction, primary screen, biochemical, FRET, CFP-Ran, YFP-importin-beta, homogeneous; cell-free CFP-Ran/YFP-importin-beta FRET ratio; inhibition, % (test concentration not listed); actives 1.1% (n = 300,000); AID 2216;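 active = most replicates above 15%; inconclusive = exactly half above 15%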;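 note: 0% = DMSO wells and 100% = Ran loaded with GDP instead of GTP; wells of about 40 µL received 100 nL stock; the first replicate is given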
# Calb FLC: affects C. albicans growth with fluconazole; growth inhibition, % (concentration not given with the values); actives 0.57% (n = 300,000); C. albicans CaCi-2 (fluconazole-resistant clinical isolate) + fluconazole, Alamar Blue growth, 48 h;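 active = most replicates above 75%; inconclusive = exactly half above 75%; inactive = most below 75%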;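 note: all wells also contain fluconazole at 8 µg/ml as a sub-toxic cotreatment; 0% = median of DMSO wells and 100% = median of geldanamycin control wells; wells of about 8 µL received 7.5 nL stock; the first replicate is given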
# T cruzi repl: T. cruzi replication inhibition. T. cruzi beta-gal in NIH3T3, luminescence, 90 h. inhibition, % (concentration not given with the values). actives 1.4% (n = 300,000);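 active = mean inhibition across valid replicates above about 55%, limit read from the data; inconclusive = mean below that limit but half or more replicates reach it; inactive = mean below it, under half of replicates reach it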;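 note: signal also drops with host cell toxicity which is not excluded here; 0% = plate median of DMSO wells and 100% = zero luminescence signal; higher percent means less beta-gal luminescence so fewer parasites; stock transfer was 50 nL into about 50 µL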
# An asterisk follows results filed as active; ? = inconclusive; nt = no result given.
SMILES,Beta apoptosis,LANA-H2B inh,A1 inh,B2AR ag,UCH37 inh,RanGTP-Imp inh,Calb FLC,T cruzi repl
N#CC1=C(N)N2C(=C(C#N)C13CCN(Cc1ccccc1)CC3)Nc1ccccc12,-1,-2.7,0.1,17,-21,34*,25,-5
COc1ccc(N2C(=O)C3C(C2=O)C3(c2ccccc2)c2ccccc2)cc1 (configuration not stated),-3,-3.7,2.7,0,6.2,?,-21,7
O=C1CN(C(=O)COC(=O)CCCOc2ccccc2)c2ccccc2N1,-3,-1.0,-1.5,13,2.0,-1.9,7,-6
COC(=O)c1ccc(NC(=O)c2ccccc2NS(=O)(=O)c2ccccc2)cc1,32,-1.0,0.3,15,-4.6,7.9,?,-72
CS(=O)(=O)N(CC(=O)NCc1ccccc1)c1ccc(Cl)cc1,-3,0.6,1.6,-8,7.8,-3.0,5,-7
COc1cccc(OC)c1C(=O)Nc1ccc(N2CCN(C(=O)c3ccco3)CC2)cc1,-8,-0.1,-0.6,-2,5.4,0.8,-23,-29
COC(=O)c1cc(S(=O)(=O)N(C)C2CCCCC2)cn1C,-6,-4.5,-0.1,1,3.8,0.0,-5,19
Cc1csc2ncc(C(=O)NCc3ccc4c(c3)OCO4)c(=O)n12,nt,3.0,-0.1,nt,6.2,?,8,19
COc1ccc(C(=O)NNC(=O)CSc2nnc(COc3ccc4ccccc4c3)n2C)cc1,-2,1.6,-0.2,-1,1.9,0.4,-21,-7
COc1ccc(C(=O)Nc2nc3ccccc3s2)c(OC)c1,45,-0.5,-6.1,14,nt,-3.4,-3,26
Cc1cc2c(cc1S(=O)(=O)NCc1ccccc1Cl)OCCN2C,4,-4.2,-0.4,-6,3.5,9.7,-1,29
Cc1cc(NC(=O)C2CC(c3ccc(F)cc3)=NO2)n(-c2ccccc2)n1 (configuration not stated),1,2.6,0.0,6,2.8,?,8,-12
CCOc1cc(/C=C(/C#N)C(=O)Nc2ccc(OC)cc2)ccc1OCc1ccc(C(=O)O)cc1,nt,5.2,-0.1,6,10,-3.6,-6,-9
CCN(CC(=O)NC1CCS(=O)(=O)C1)S(=O)(=O)c1cc(C)ccc1C (configuration not stated),nt,2.4,0.2,-3,-0.8,-1.2,31,-8
CCC(=O)Nc1ccc(N2CCOCC2)c(S(=O)(=O)Nc2ccc(OC)cc2)c1,-6,0.0,0.3,-2,5.3,-0.7,5,2
COc1cccc(Oc2coc3c(CN4CCOCC4)c(O)ccc3c2=O)c1,-11,-0.3,0.9,-10,-174,1.2,-5,-1
O=C(/C=C/c1ccc2c(c1)OCCCO2)c1ccc2ccccc2c1O,-6,-15,0.3,-2,9.0,?,5,-1
COc1ccc(NS(=O)(=O)c2ccc(Cl)c(NC(=O)c3ccccc3F)c2)cc1,5,-0.8,1.5,-10,-2.3,nt,nt,nt
COc1ccc(NC(=O)CN(c2ccccc2)S(=O)(=O)c2ccccc2)c(OC)c1,1,4.2,-0.1,9,7.5,2.7,1,0
COCCNC(C)C(=O)Nc1ccc(Br)cc1 (configuration not stated),-2,-0.2,-1.4,-4,4.1,1.9,16,-4
COC(=O)CN1C(=O)C(O)(CC(=O)c2ccc(C)cc2)c2cc(Br)ccc21 (configuration not stated),-19,-4.0,-0.1,-6,5.1,0.6,1,-7
CCN(CC)S(=O)(=O)c1ccc(NC2c3ccccc3C(=O)N2Cc2ccc3c(c2)OCO3)cc1 (configuration not stated),6,-0.7,0.4,-7,5.3,-8.3,0,1
O=C1c2ccccc2C(=O)N1c1cccc(-c2nc3ccccc3o2)c1,7,-2.1,1.1,-7,-2.3,1.1,-3,-6
CCOC(=O)c1c(NC(=O)COC(=O)CCCOc2ccc(OC)cc2)sc(C(=O)NC)c1C,-4,0.5,0.2,2,2.5,-4.0,2,-2
Cc1ncc(CN2CCN(CCC(C)C)C(CCO)C2)s1 (configuration not stated),-6,-1.0,-0.1,-3,-1.0,?,19,17
O=c1nc(N2CCCC2)nc(N2CCCC2)[nH]1,0,2.1,0.4,5,1.7,-3.1,-4,-3
Cc1cc(C)n(C(=O)c2sc3cc(F)ccc3c2Cl)n1,-1,-0.9,1.2,nt,-3.2,0.8,-5,8
CC(C)c1ccc(NC2CCCN(C(=O)c3ccc4nccnc4c3)C2)cc1 (configuration not stated),nt,nt,nt,6,nt,-6.6,-5,0
CC(C)(C)c1ccc(NC(=O)CN2C(=O)NC(C)(C3CC3)C2=O)cc1 (configuration not stated),-4,-3.2,1.3,3,1.8,nt,nt,nt
COc1cccc(N/C(SC)=C(/C#N)C(N)=O)c1,-5,3.3,-2.3,-6,8.8,0.2,30,6
COc1cccc(CNC(=S)Nc2cccc(Cl)c2C)c1,3,1.8,-0.1,-7,-0.8,1.7,-14,-15
COc1ccc(C(C(=O)NC2CCCC2)N(C(=O)c2snc(-c3ccc(F)cc3)c2N)c2ccc(F)cc2)cc1 (configuration not stated),11,-2.1,-0.8,5,-5.0,-0.1,4,29
COc1ccc2c(c1)Cc1sc(NC(=O)c3cccnc3)nc1-2,5,6.1,0.2,1,9.9,1.9,-1,-31
CCCc1cc(-c2nc(-c3ccc(C)cc3)cs2)ccn1,35,-7.1,-0.5,3,-5.0,5.6,13,-58
Cc1noc(C)c1CC(=O)NC1CC(C)(C)Cc2c1cnn2-c1ccccc1 (configuration not stated),2,1.5,-0.9,15,4.1,-2.6,5,5
COc1ccc(OC)c(/C=N\NC(=O)CC(=O)NCCc2ccccc2)c1,-2,-5.1,0.5,13,nt,2.0,-3,4
CC1Cc2ccccc2N1C1=NS(=O)(=O)c2ccccc21 (configuration not stated),-13,-3.3,-0.6,4,9.7,0.8,1,-6
COc1ccccc1-n1cnc2c(c1=O)c1nc3ccccc3nc1n2-c1ccc(C)c(C)c1,nt,nt,nt,25,-9.9,2.7,-9,31
Cc1ccc(Nc2ncc(C(=O)NCCCN3CCN(C)CC3)c3ccccc23)cc1Cl,8,0.1,0.1,14,0.1,6.1,4,6
Fc1cccc(Nc2nc3ccccc3n3nnnc23)c1,6,-1.5,0.1,-4,-27,6.1,14,-7
N/C(=N\NC(=O)c1cccc(F)c1)c1cc2ccccc2oc1=O,0,1.5,0.2,9,4.2,7.9,6,-10
COc1cccc(NC(=O)N[C@@H](Cc2ccccc2)C(=O)O)c1,-7,-1.9,0.1,2,1.4,0.7,-3,-29
CC(C)C(=O)N1CCC(n2nccc2NC(=O)CCOc2ccccc2)CC1,0,1.1,0.0,0,-1.0,4.5,9,0
Cc1ccc2cc(CN(Cc3ccc(F)cc3)Cc3nnnn3C3CCCC3)c(=O)[nH]c2c1,1,-5.0,0.6,-10,1.6,4.4,?,?
O=C1OC(=O)c2cc([N+](=O)[O-])ccc21,0,2.2,0.0,-2,3.3,nt,nt,nt
CN(c1ccccc1)c1ccc(/C=c2\s/c(=C(/C#N)C(=O)C(C)(C)C)n(Cc3ccco3)c2=O)cc1,4,-4.3,0.0,nt,nt,-51,-17,9
C=CCn1c(-c2ccccc2)ccc(C#N)c1=O,5,-8.0,0.0,5,-3.0,-0.8,-18,17
Cc1ccc(C(=O)Nc2c(C(=O)N3CCOCC3)cnn2-c2ccccc2)cc1,1,-1.4,0.8,-1,-3.5,3.9,7,0
CS(=O)(=O)N1CCN(c2ccccc2NC(=O)c2ccc(-c3ccc(Cl)cc3Cl)o2)CC1,21,-0.6,0.5,-5,0.4,2.0,4,51
CCN(CC(=O)Nc1c(F)cccc1F)C(=O)c1ccc(N2C(=O)c3ccccc3C2=O)cc1,5,-4.3,0.5,-7,-1.5,0.8,3,-10
CCc1c(C)c(C#N)c2nc3ccccc3n2c1NCC1CCCO1 (configuration not stated),nt,1.1,1.7,-7,-27,7.2,-19,38
CCc1ccc(NC(=O)CSc2nc3c(c(=O)n(C)c(=O)n3C)n2C)cc1,2,0.9,0.0,-2,3.1,-5.5,-3,2
C/C(=N/NS(=O)(=O)c1ccc(F)cc1)c1ccncc1,-17,-6.3,-0.1,-1,nt,1.4,1,-1
CCCOc1ccc(C(=O)CCN2CCCCC2)cc1,-6,-7.2,0.8,9,-1.9,-1.7,nt,8
C/C(=N\NC(=O)c1c(C)nc2ccccn12)c1ccc(N2CCOCC2)cc1,-7,-4.8,0.2,-1,nt,9.0,3,-4
CN(C)c1cc(-c2ccc(Cl)cc2)oc(=O)c1Cl,14,-0.1,1.1,6,8.6,0.3,-2,2
O=C(c1cc(Cl)ccc1O)N1CCN(S(=O)(=O)Cc2ccccc2)CC1,-5,5.9,-1.5,-4,0.7,nt,nt,nt
O=C(CNC(=O)c1cc2c(s1)CCC2)Nc1ccccc1Br,-6,0.0,nt,-1,-13,-2.2,-24,-2
COc1ccc(CC(NC(C)=O)C(=O)NC2CCN(C(=O)c3ccc(OC)c(OC)c3)CC2)cc1OC (configuration not stated),-3,1.6,1.4,-3,0.3,?,0,-11
COc1cc(NC(=O)c2csc3c2CCCC3)ncn1,-1,6.2,-3.1,-13,1.6,?,6,-15
# Next part
SMILES,Beta apoptosis,LANA-H2B inh,A1 inh,B2AR ag,UCH37 inh,RanGTP-Imp inh,Calb FLC,T cruzi repl
CC(C)(C)NC(=O)C1CCN(S(=O)(=O)c2cccc(C(F)(F)F)c2)CC1,2,-4.6,-0.1,1,0.7,-0.7,-3,3
COc1ccc(C(=O)NC(=O)Nc2ncccc2C)cc1,0,6.2,-0.3,-2,1.8,-4.0,-13,-13
O=C(CSc1ccc(Cl)cc1)Nc1ccc(N2CCN(C(=O)c3ccco3)CC2)cc1,5,-5.4,0.2,-2,1.4,-5.2,-5,9
Cc1c(/C=C/C(=O)c2ccc(C(C)C)cc2)cnn1C,nt,-7.1,0.8,7,2.2,-2.3,1,-15
CC(=O)N1CCc2cc(S(=O)(=O)CCC(=O)NCc3ccc(C)o3)ccc21,-1,-2.2,-0.5,-3,0.0,-1.6,-8,-3
COc1ccc(N(Cc2cc3ccccc3[nH]c2=O)C(=O)C2CCCO2)cc1 (configuration not stated),-8,6.0,-0.2,-7,nt,-5.9,-6,-17
CCCCCC(=O)NNC(=S)NC(=O)c1ccccc1[N+](=O)[O-],2,-0.1,-0.6,2,0.1,5.7,-4,-6
O=C(CC(C(=O)N1CCc2ccccc21)n1ccnc1)NCc1cccnc1 (configuration not stated),nt,3.6,0.6,-10,-0.3,9.4,29,-8
Cc1ccc(-n2c(SCC(=O)Nc3ccc4c(c3)OCO4)nnc2-c2ccoc2C)cc1,nt,-4.0,0.1,-5,0.6,0.0,-2,-9
CCCOc1ccc(N2C(=O)CC(N(CCC)C(=O)CCC(=O)O)C2=O)cc1 (configuration not stated),-7,nt,-0.1,-6,6.4,0.1,17,-11
CCN(CC)S(=O)(=O)c1ccc(Cl)c(C(=O)Oc2cccc(-c3cnc4ccccc4n3)c2)c1,3,0.6,-5.5,1,3.9,0.7,-4,-7
COc1cccc2cc(C(C)N(CCCN3CCOCC3)C(=S)Nc3cc(C)ccc3C)oc12 (configuration not stated),-3,5.6,1.5,12,3.0,4.1,-3,10
